NPYLR7 ag = agonists of mosquito NPYLR7 receptor, primary screen, cell-based, Aedes aegypti, calcium fluorescence, mosquito biting behavior; Aedes aegypti neuropeptide Y-like receptor 7 (NPYLR7); HEK293T NPYLR7/Galpha15, GCaMP6s calcium fluorescence; activation, % at 10 µM; actives 0.15% (n = 270,000); in the data active = activation above about 40%;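 note: 0% = vehicle and 100% = reference agonist at the receptor; some compounds past the cut are filed as inactive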
NPYLR7 ag max-min = further read-out of NPYLR7 ag, marked with its call; activation, %; measured here: Max-Min RFU normalised activation; some inactives read as strong as hits;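 span of the calcium signal over five minutes; 0% = vehicle and 100% = native peptide agonist; compound fluorescence can raise it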
Active calls of the source: *; & = joins results of further samples.

SMILES	NPYLR7 ag	NPYLR7 ag max-min
CN(Cc1ncc[nH]1)C(=O)c1cnc(Nc2ccccc2)nc1	4	3
COC(=O)C1Cc2ccc(C)cc2C(=O)O1 (centres undefined)	5	9
Cc1cccc(C(=O)N2CC[C@@H](c3ccc4ccccc4c3)[C@H](O)C2)n1	3	1
N#CC1=C(O)CCCn2c1nc1ccccc1c2=O	3&-7	3&-13
C#CCSc1nnc(-c2cn(C)nc2OC)n1CCOC	3	5
CCOC(=O)N(C)c1c(CC)nc2c(OCc3cccc(Cl)c3)cccn12	-3	-10
O=S(=O)(Nc1cc2c(cc1Cl)OCO2)c1ccc(Cl)s1	-2	1
CN(C)c1ncccc1CNc1nc(-c2ccccc2)nc2c1CCC2	-3	-6
O=C1CCCCC1n1nc(Cl)nc1Cl (centres undefined)	2	-1
Cc1nc(C(F)(F)F)ccc1C(=O)N1CCN(c2nc3nccc(-c4ccc(N5CCOCC5)cc4)n3n2)CC1	-4	-5
c1ccc(COC2CCN(c3nc4nonc4nc3N3CCSCC3)CC2)nc1	2&2	8&0
O=C(Nc1cccc(F)c1)N1CCC(CCc2ccc(C(F)(F)F)cc2)CC1	4	15
CC1(C)O[C@@H]2C[C@@](OCc3ccc(C#N)cc3)(C(=O)NCCN3CCCC3)CC(OCc3c(F)cccc3F)[C@@H]2O1 (some centres undefined)	20	6
COC(=O)c1ccc(COc2coc(CSc3nncn3C)cc2=O)o1	8	3
CCCc1nc(C)c(CNC(=O)Cc2ccccn2)s1	3	0
NS(=O)(=O)c1ccc2c(c1)CCN2	0	10
Cc1ccc(NC(=O)C(C)N2CCC(C(=O)N3CCCC3)CC2)c(C)c1 (centres undefined)	-24	-23
CN(C)CCNC(=O)c1cccc(-c2ccc3nnc(-c4ccc5c(c4)OCO5)n3c2)c1	-14	-17
COc1ccc(-n2[nH]nnc2=S)cc1	-2	0
Cc1n[nH]c(C)c1CCCNC(=O)c1cccc2c(C)c(C)[nH]c12	-1	-1
Cc1ccc(-c2cc3c(=O)n(CC(=O)Nc4ccc(C)c(Cl)c4)ncn3n2)cc1	-8	-14
COc1cccc(C(CN2CCN(S(=O)(=O)c3cn(C)c(C)n3)CC2)OCc2ccc(C#N)cc2)c1 (centres undefined)	-4	-4
CCOC(=O)CCN1CCN(c2c(-c3ccc(OC)c(OC)c3)cnc3ncnn23)CC1	25	11
CC1(C)OC(C(=O)NC2CCCCC2)C(C(=O)NC2CCCCC2)O1 (centres undefined)	3	7
COCCn1c(SCCCC#N)nc2sc3c(c2c1=O)CCC3	2	5
CC1=C[C@@H](CNC(=O)Nc2ccccc2)[C@H](C(C)C)C[C@H]1CC(=O)N1CCN(C)CC1	-12	-17
CCN(CC(=O)Nc1cc(-c2ccccc2)nn1-c1ccc(Cl)c(Cl)c1)C(=O)NC1CCCCC1	9	20
CC(C)(C)C(=O)COC(=O)C=Cc1ccco1	6	4
COc1ncccc1-c1nc2c(C)cccc2cc1CO	14	9
COc1ccc2[nH]c(C(=O)N3CCN4CCN(C)CC4C3)c(C)c2c1 (centres undefined)	2	2
CC(C)CN(CC(=O)N(Cc1cccn1Cc1ccccc1Cl)CC(C)C)C(=O)COc1ccccc1	2	18
O=C(NC(C(=O)NCc1ccco1)C1CCN(C(=O)C2CC2)CC1)c1ccccc1 (centres undefined)	10	6
COCc1ccc(C(=O)N2CCCC(C(=O)c3cccc(C(F)(F)F)c3)C2)o1 (centres undefined)	22	8
CN=c1scc(-c2ccc(Cl)cc2)n1N=Cc1cc(OC)c(O)c(OC)c1	1	-3
CCN1C(=O)NC(c2ccccc2)C1=O (centres undefined)	0	-4
O=C(NC1CCc2c(F)cccc21)N1CCC(OC2CCOC2)CC1 (centres undefined)	-24	-26
Cc1cc(=O)[nH]c(S)c1C#N	-4	-5
Cn1c(-c2ccccc2)nn(CCNS(=O)(=O)/C=C/c2ccccc2)c1=O	1	0
Cc1ccc2nc(NCc3ccccc3)c(C=NCc3ccccc3)c(=O)n2c1	-6	-10
FC(F)(F)c1cnc(NCCc2nnc3n2CCC3)c(Cl)c1	-6	-4
Cc1cccc2nc(Cc3c[nH]c4ccccc34)[nH]c(=O)c12	-3	-3
O=C(N1CCC(Nc2cccnn2)CC1)C1(c2ccc(F)cc2)CC1	-23	-23
CCOC(=O)CNC(=O)CSc1ccnc2c1c(=O)n(C)c(=O)n2C	2	8
COc1ccc(NC(=O)CSc2ccc3nnc(-c4ccc(C)cc4)n3n2)c(OC)c1	16	18
Cc1cn2c3c(=O)n(CC(=O)c4ccccc4)c(=O)n(C)c3nc2n1-c1ccccc1F	4	0
COc1ccc(S(=O)(=O)Nc2ccccc2C(=O)NCc2ccc3c(c2)OCO3)c(OC)c1	5	2
CN(NC(=O)C1CC=CCC1C(=O)N1CCc2c([nH]c3ccccc23)C1)c1ccccc1 (centres undefined)	-9	-14
COc1ccc(CN(CC(C)C)C(=O)NC2CCCCC2)cc1OS(=O)(=O)c1cccc(C(F)(F)F)c1	-12	-12
COc1ccc2c3c1O[C@H]1C[C@@H](O)C=C[C@@]31CCN(C)C2	-14&-10&4	-17&-16&-1
O=C(Nc1nnc(C2CC2)s1)C1CC=CCC1 (centres undefined)	1	0
COc1ccc(/C=C(/C#N)S(=O)(=O)c2ccc(C)cc2)cc1F	11	4
CN(C)c1ccc(NC(=O)c2cccc(F)c2)cc1CN(Cc1ccc(F)cc1)S(=O)(=O)c1cccc(Cl)c1	12	3
Cc1cc(C)cc(C(=O)OCC(=O)NCCN2C(=O)CSC2=O)c1	-5	-5
CC(C)Cn1c(N2CCOCC2)n[nH]c1=S	1	-2
Cc1cccc(-c2noc(-c3ccc(=O)n(Cc4ccc(N5CCCC5=O)cc4)c3)n2)c1	-6	-6
CCc1nc2n(n1)C(=O)C(C(c1ccco1)N1CCN(C)CC1)S2 (centres undefined)	8	7
CCn1c(C(=O)OC)c(NC(C)=O)c2cc(NCc3cc(F)cc(F)c3)cnc21	18	11
COc1ccc(-c2noc(CN3CCCC(CNC(C)=O)C3)n2)cc1 (centres undefined)	6	0
Cc1cccc(-c2nc3scc(CCNS(=O)(=O)c4ccc(F)cc4C)n3n2)c1	-1	-3
COc1ccc(-c2ccc(C(=O)N(C)Cc3csc(C)n3)o2)cc1	6	5
Following part.
SMILES	NPYLR7 ag	NPYLR7 ag max-min
Cn1c(=O)n(Cc2c(Cl)cccc2Cl)c(=O)c2c1nc1n2CCCN1Cc1ccco1	0	33
O=C(NCc1noc(Cc2cccs2)n1)c1cnn2c1CCCC2	6	1
CC(C)CNC(=O)Cn1nnc(-c2ccccc2Cl)n1	6	6
CCOC(=O)c1ccc(NC(=O)N(CCc2ccccc2)C(C)c2nc3ccccc3c(=O)n2-c2ccc(C)c(C)c2)cc1 (centres undefined)	-11	2
CSc1nc2nc(C)c(CC(=O)NC3CCCCCCC3)c(C)n2n1	12	3
CC1=NC2=C(C(=O)CC(C)(C)C2)C(c2ccc3c(c2)OCO3)C1C(=O)Nc1ccccc1 (centres undefined)	-2	-4
Cc1cc(C)c2nc(NC(=O)Cc3cccc4ccccc34)sc2c1	2	9
O=S(=O)(/C=C/c1ccccc1Cl)N1CCC2(CC1)OCCO2	5	1
O[C@@H]1CN(c2ncnc3[nH]ccc23)CC[C@H]1c1ccc2ccccc2c1	-1	-6
COc1ccc(S(=O)(=O)Nc2ccc(C)cc2Cl)cc1F	5	2
O=C(Nc1cnn(Cc2ccccc2)c1)c1nc2ncccn2n1	1	-1
Cc1ccsc1-c1cc(NC(=O)CCNC(=O)C2CC2C)n[nH]1 (centres undefined)	5	2
CCN1CCN(C(=O)c2ccccc2N2CCC(NC(=O)c3ccccc3Cl)CC2)CC1	-1	6
CC(c1ccc(C(=O)NCCc2cnc[nH]2)o1)N1CCCCC1 (centres undefined)	1	-5
COC(=O)c1ccc(Oc2coc3c4c(ccc3c2=O)OCN(C(C)C)C4)cc1	3	1
O=C(c1csc(-c2ccc(Cl)cc2)n1)N(CCO)CCN1CCOCC1	0	-112
O=C(NCc1ccccc1CN1CCCC1)c1cc(=O)c2ccccc2o1	22	17
COc1ccc(OCCN(C)C(=O)Cc2c(C)nn(C)c2C)cc1	-3	-5
C=C(C)Cn1c(=O)c2c(nc3n(-c4ccccc4Cl)c(C)c(C)n23)n(C)c1=O	-3	-4
COc1ccc(C(=O)Nc2c3c(nn2-c2cccc(C)c2C)CSC3)cc1	-3	-6
Cc1nn2cc(CCNC(=O)c3cc4n(n3)CCCN(C)C4)nc2s1	-7	-15
COCCn1c(SC(C)C(=O)N(C)C2CCCCC2)nc2sc3c(c2c1=O)CCCC3 (centres undefined)	1	8
COc1ccc(N2CCN(c3cc(C(=O)NCC4CC4)ncn3)CC2)cc1OC	-3	-8
N#CCCSc1nc(N2CCOCC2)c2c(c1C#N)CCCC2	9	4
Cc1oc(-c2ccccc2)nc1C(=O)N=c1sccn1C	5	0
Cc1ccc2nsnc2c1NS(=O)(=O)NCc1ccccc1	9	7
COCc1nnc(C(=O)N(C)Cc2cccnc2)o1	7	2
O=C(CCCn1cccn1)NC1CC(=O)N(Cc2cccc3ccccc23)C1 (centres undefined)	4	2
CN(C)c1nnc(C(O)c2ccc(Oc3ccccc3)cc2)s1 (centres undefined)	2	1
COCCCNC(=O)C1CCN(c2ncccc2-c2nc(-c3ccccc3)no2)CC1	-4	-6
COc1ccc(N2C(=O)CC(NCCc3ccccc3)C2=O)cc1 (centres undefined)	-7	-14
COC(=O)C1=c2/c(=C/c3ccccc3F)c(N)c(C(=O)OC)n2C(=O)C(c2ccccc2F)S1 (centres undefined)	1	11
COc1ccc(NC(=O)N2CCc3nc(-c4ccccc4)nc(N4CCN(C)CC4)c3C2)cc1	-9	-11
O=C(NCCc1cccc(F)c1)C1Cc2ccccc2O1 (centres undefined)	-3	1
Cc1cn2c(C=CC(=O)O)c(C)nc2s1	5	7
O=C(/C=C/c1cn(S(=O)(=O)c2cccc(C(F)(F)F)c2)c2ccccc12)NCCc1c[nH]c2ccc(O)cc12	-5	-13
COCCNCc1c(-c2ccccc2)noc1N1CCSCC1	6	6
CC1CCN(C)c2ccccc2N1C(=O)CCNC(=O)C(C)(C)C (centres undefined)	-32	-31
COc1ccc(Cl)c2sc(N(Cc3ccccn3)C(=O)c3cc(C)no3)nc12	-4	-1
CN(CC1CCCO1)S(=O)(=O)c1ccc(C(=O)Nc2ccc3sccc3c2)cc1 (centres undefined)	-2	2
CN(C(=O)CSc1nnc(N)s1)C1CCCCC1	4	8
O=S(=O)(NCc1ccc2c(c1)CCC2)c1cccc2nsnc12	0	-1
CC(C)NC(=O)[C@@]1(OCc2ccccc2F)CC(OCc2ccc(C(F)(F)F)cc2)[C@H](O)[C@H](O)C1 (some centres undefined)	5	9
Cc1csc(NC(=O)CC(C)c2ccncc2)n1 (centres undefined)	6	4
Cc1cc(C)cc(NC(=O)CSc2ncc(S(=O)(=O)c3ccc(C)c(C)c3)c(=O)[nH]2)c1	-7	-14
Cc1nnnn1-c1cccc(C(=O)N2CCC(O)(CN(C)C)C2)c1 (centres undefined)	8	6
CCc1nc2c(cnn2-c2ccccc2)c(=O)n1-c1cccc(O)c1	-3	-3
CC(C)(C)N1CCCN(C(=S)NCc2cccs2)CC1	-1	-2
Cc1ccsc1[C@@H]1CCN(Cc2ccc(-c3cncnc3)cc2)C[C@H]1O	0	55
C=CCn1c(SCc2cc(F)ccc2F)nnc1-c1ccccc1F	-5	0
O=c1c(S(=O)(=O)c2ccccc2)cn(Cc2cccc(F)c2)c2cc(N3CCOCC3)c(F)cc12	3	3
N#Cc1cccc(C2(C(=O)O)CC2)c1	2	1
CN(C)CCCNC(=S)Nc1ccc(Cl)cc1Cl	10	9
C=CCOC(=O)C1C(C)=Nc2nc(SCC(C)C)[nH]c(=O)c2C1c1cccs1 (centres undefined)	11	9
O=C(Nc1cccc2c1CCCC2)c1ccc(Nc2cccc(C(F)(F)F)c2)nc1	-8	-13
C=c1c(C#N)c2[nH]c(N)c(C#N)c(C)c-2/c1=C\c1cc(OC)c2c(c1)OCO2	15	7
CCCn1ncc(-c2ccnc(NCc3cnn(CC)c3)n2)c1C	-4	-7
CCN(C)c1cc(Oc2cc(C)ccc2Cl)ncn1	12	10
COc1ccc2ccc(O)c(CN3CCCc4c3cccc4S(C)(=O)=O)c2c1	-8	482
CCOC(=O)c1cc(-c2ccc(N3CCN(C(=O)COc4cccc(Cl)c4)CC3)cc2)n(-c2ccccn2)n1	5	2
Cc1occc1C(=O)N1CCN(C(=O)CCOc2cccc(F)c2)CC1	-6	-7

Compound activity (PubChem)

This is a subset (hit frequency here may not be typical).
